# Bioassay records as filed in PubChem.
# Sfp PPTase inh: qHTS Assay for Inhibitors of Bacillus subtilis Sfp phosphopantetheinyl transferase (PPTase); 4'-phosphopantetheinyl transferase ffp (Bacillus subtilis), Q9F4F7; Biochemical Sfp PPTase activity, qHTS; Potency, µM, for inactives: max response, negative = inhibition, actives largely listed as inhibitors; actives 3.5% (n = 310,000); AID 1490, 2009; active = well fitted inhibition curve with a large enough effect; inconclusive = small, poorly fitted or top-dose-only effect, or another doubt; inactive = no such curve, though single readings can be large or run the other way;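 note: the enzyme is Sfp with the accession as filed and its product quenches rhodamine fluorescence; potency is the fitted concentration of half-maximal effect; 0% = enzyme reaction without inhibitor and -100% = no enzyme wells; top concentration of the series not given in the record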
#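 Compounds were incubated with enzyme (final 15 nM) for 15 min at room temperature before substrate addition started the reaction. Fluorescence at 525 nm excitation, 598 nm emission was recorded immediately and after 30 minutes.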
# D2 PAM: Beta-Arrestin HTS for Positive Allosteric Modulators of the Human D2 Dopamine Receptor: Potentiators; actives 0.23% (n = 360,000); potentiation, % (concentration not given with the values); D(2) dopamine receptor (Homo sapiens), P14416; DiscoveRx D2 beta-arrestin cells, luminescence, 90 min; 100% = 57 uM dopamine signal; active = potentiation of 50% or more; inconclusive = 30% to 50%; inactive = 30% or less;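 note: compound concentration not given in the record; tested on top of an EC20 dose of dopamine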
#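 D2 cells co-treated with compound plus 50 nM dopamine (EC20) for 90 min at 37 deg C to detect potentiation. Beta-arrestin recruitment was read as enzyme-fragment luminescence after 1 h at ambient temperature. Full response was set by 57 uM dopamine.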
# TRPV1 PAM: HTS Assay for Compounds that Act as Potentiators of the Vanilloid Receptor 1. TRPV1-expressing cells, Fluo-8 calcium influx, capsaicin EC20 potentiation; host cell line not named in the record; control for the full effect not named in the record. potentiation, % at 8.33 µM. actives 0.02% (n = 320,000); active means potentiation above 80%; inconclusive means 30% to 80%; inactive means below 30%; note: 0% is about no effect
#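 Fluo-8 calcium influx in TRPV1-expressing cells, kinetic read (ex 480/em 520 nm). Compound added and read 3 min for agonist activity, followed by capsaicin at EC20 final and 2 min further read for enhancement.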
# Six1-Eya2 inh: qHTS Assay for Inhibitors of the Six1/Eya2 Interaction; Homeobox protein SIX1 (Homo sapiens) + Protein phosphatase EYA2 (Homo sapiens), …; AlphaScreen GST-Six1/His-Eya2 binding, biochemical; hits give low values; control for the full effect not named in the record; activity change, % (concentration not given with the values); actives 0.56% (n = 360,000); in the data active = activity change below about -65%; inconclusive = about -30% to -65%; inactive = above about -30%; note: % is set by controls: 0 for no effect and ±100 for the full control effect
# Target sequence (O00167 whole entry, looked up): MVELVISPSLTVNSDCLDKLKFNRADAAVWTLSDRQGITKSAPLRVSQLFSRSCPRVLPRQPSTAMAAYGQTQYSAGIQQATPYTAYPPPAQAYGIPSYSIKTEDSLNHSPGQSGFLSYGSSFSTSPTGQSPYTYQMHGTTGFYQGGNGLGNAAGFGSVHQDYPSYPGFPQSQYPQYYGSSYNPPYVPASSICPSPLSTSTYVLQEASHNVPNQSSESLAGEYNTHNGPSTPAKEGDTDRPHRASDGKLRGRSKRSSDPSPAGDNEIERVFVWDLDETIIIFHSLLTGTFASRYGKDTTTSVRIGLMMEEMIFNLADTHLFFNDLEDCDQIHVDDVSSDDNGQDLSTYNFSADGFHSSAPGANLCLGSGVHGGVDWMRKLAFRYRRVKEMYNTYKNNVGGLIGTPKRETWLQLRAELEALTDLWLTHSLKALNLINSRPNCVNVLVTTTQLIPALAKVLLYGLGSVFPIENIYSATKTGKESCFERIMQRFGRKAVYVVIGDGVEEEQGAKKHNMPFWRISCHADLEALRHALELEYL
# Target sequence (Q15475 whole entry, looked up): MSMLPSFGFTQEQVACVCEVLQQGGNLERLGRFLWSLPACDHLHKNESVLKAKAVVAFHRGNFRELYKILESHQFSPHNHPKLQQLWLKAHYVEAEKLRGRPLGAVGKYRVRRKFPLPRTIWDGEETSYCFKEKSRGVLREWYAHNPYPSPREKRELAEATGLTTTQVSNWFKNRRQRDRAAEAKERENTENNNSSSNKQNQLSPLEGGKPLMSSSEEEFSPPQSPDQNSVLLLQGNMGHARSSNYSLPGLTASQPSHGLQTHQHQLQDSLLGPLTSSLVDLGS
#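 AlphaScreen with GST-Six1 and His-Eya2 (5X mix: 250 nM and 500 nM), glutathione donor and nickel acceptor beads; buffer 50 mM Tris pH 8.0, 300 mM NaCl, 1 mM TCEP; 1 h at 37 C in the dark.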
# D2 agonist: Beta-Arrestin HTS for Positive Allosteric Modulators of the Human D2 Dopamine Receptor: Agonists; DiscoveRx PathHunter D2 beta-arrestin, luminescence, 90 min; 100% = 57 uM dopamine signal; activation, % (test concentration not listed); actives 0.084% (n = 360,000); in the data active = activation above about 40%; inconclusive = about 15% to 40%; inactive = below about 15%; note: compound concentration not given in the record; the text of the record calls up to 30% inactive
#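 Agonist mode: compounds alone added to overnight-plated D2 PathHunter cells for 90 min at 37 C, with 57 uM final dopamine (EC100) defining full response. Beta-arrestin recruitment detected by chemiluminescent reagent, read after 1 h at ambient temperature.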
# CtBP-E1A inh: qHTS Assay for Inhibitors of the CtBP/E1A Interaction; actives 0.49% (n = 340,000); activity change, % (test concentration not listed); AlphaScreen GST-E1A/His-CtBP binding, 1536-well; hits give low values; control for the full effect not named in the record; CtBP / adenovirus E1A interaction (AlphaScreen); in the data active means activity change below about -65%; inconclusive means about -30% to -65%; inactive means above about -30%; note: % is set by controls: 0 for no effect and ±100 for the full control effect; compound concentration not given in the record
#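 Homogeneous bead-based format: GST-tagged E1A captured on glutathione donor beads, His-tagged CtBP on nickel acceptor beads; compounds precede bead addition by 2 h at 37 °C.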
# PINK1 modulator: A Quantitative High throughput Screen to Identify Chemical Modulators of PINK1 Expression | actives 0.2% (n = 410,000) | AID 624263, 2012 | PINK1 immunofluorescence, high-content cytometry, 24 h | Potency, µM (highest dose often 76.6 µM), for inactives: at the top dose activation (PINK1 increase), hits mostly activators; active = well fitted activation curve with a large enough effect; inconclusive = small, poorly fitted or top-dose-only effect; inactive = flat fitted curve, though single readings scatter; cell line not stated here;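 note: potency is the fitted concentration of half-maximal effect; % of control where 0% means no effect; nearly all actives have a fitted effect of over 65% in size; a mitochondrial uncoupler was the plate control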
#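 PINK1 protein, normally rapidly degraded, was detected by immunofluorescence after 24 hour compound treatment of a stable cell line. Titration data (5 concentrations) came from laser-scanning cytometry, with CCCP-treated wells as controls.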
# * = called active by the depositor; ? = inconclusive; nt = not tested or not shown; [ ] = dose if it differs, or a comment.
# A first look (3 entries):
Molecule	D2 agonist	PINK1 modulator	Six1-Eya2 inh	Sfp PPTase inh	D2 PAM	CtBP-E1A inh	TRPV1 PAM
CC(=O)Nn1c(-c2ccccc2)cc2ccccc21	-2.4	-1.0%	-3	15%	1	1	?
Cc1cc(C(F)(F)F)n2nc(-c3cnn(C)c3C(F)(F)F)c(Br)c2n1	-8.3	1.2%	-7	2%	-15	-1	?
CN(CC(=O)Nc1ccc(Cl)cc1)CC(=O)Nc1cc(Cl)ccc1C#N	-0.6	0.8%[38.3 µM]	-5	0%	-5	-12	-1

# The list itself, previewed entries included:
Molecule	D2 agonist	PINK1 modulator	Six1-Eya2 inh	Sfp PPTase inh	D2 PAM	CtBP-E1A inh	TRPV1 PAM
CC(=O)Nn1c(-c2ccccc2)cc2ccccc21	-2.4	-1.0%	-3	15%	1	1	?
Cc1cc(C(F)(F)F)n2nc(-c3cnn(C)c3C(F)(F)F)c(Br)c2n1	-8.3	1.2%	-7	2%	-15	-1	?
CN(CC(=O)Nc1ccc(Cl)cc1)CC(=O)Nc1cc(Cl)ccc1C#N	-0.6	0.8%[38.3 µM]	-5	0%	-5	-12	-1
C=CCOc1ccc(C2=NOC(C(=O)Nc3ccc4c(c3)OCCO4)C2)cc1 (stereo not given)	-1.9	0.9%	-1	-4%	2	3	-18
COc1ccc(-n2c(Cn3c(=O)sc4ccccc43)nnc2SC)cc1	-8.8	0.4%	10	12%	-2	4	-1
C#CCNC(=O)C1=C[C@H](C)[C@@H](CCCO)[C@H](OCC)O1	-1.6	-0.2%	2	21%	-5	3	0
C=CCn1c(N)cc(=O)nc1SCC(=O)Nc1ccc(C)cc1	2.2	0.1%	-1	23%	-4	8	2
S=c1[nH]nc(C2CCCCC2)n1/N=C/c1ccccn1	-2.8	0.0%	3	?	-2	12	-17
O=C(CNC(=O)c1ccccc1F)NCc1ccccn1	-1.5	3.1%	-7	nt	11	nt	nt
CCCc1nc2c3ccccc3ccn2c1Cc1ccccc1	-5.2	?	2	nt	-12	-23	nt
C=CCN1C(=O)c2ccc(C(=O)N(CC(C)C)c3c(N)n(CCCC)c(=O)[nH]c3=O)cc2C1=O	-4.0	2.9%	-5	nt	-3	7	3
COc1cccc(N2CN(CCc3ccccc3)CNC2=S)c1	-2.8	-1.2%	-2	14%	-3	0	-3
CN(c1ccccc1)c1nc(-n2ccnc2)nc(-n2ccnc2)n1	-0.9	-0.8%	-3	9%	17	0	nt
CCC(C)Sc1ccc([C@H]2N[C@@](C)(C(=O)OC)[C@H]3C(=O)N(C)C(=O)[C@@H]23)cc1OC (stereo not given in full)	-1.7	0.4%	8	nt	1	8	-9
C/C(=N/NC(=O)CN(c1ccccc1)S(=O)(=O)c1ccccc1)c1ccccc1O	0.6	1.4%	-2	25%	-78	nt	8
COc1ccc(-n2c(C)cc(/C=C3\SC(=O)NC3=O)c2C)cc1	2.1	-2.3%	8	?	1	0	-3
Cc1cc(C)c(S(=O)(=O)N2CCCCC2)cc1N(C)S(=O)(=O)c1ccc(Cl)cc1	-4.5	-2.1%	-4	7%	-18	-2	8
Cc1ccc(CCNc2ncnc(Cl)c2N)cc1	0.8	-1.7%	-4	nt	-7	1	nt
CC(=O)/C=C1\SC(CC(=O)O)C(=O)N1c1ccccc1 (stereo not given)	0.8	0.0%[38.3 µM]	4	2%	-8	9	5
CC(=O)C(Sc1nc(N(C)C)nc(N(C)C)n1)C(=O)Nc1ccccc1 (stereo not given)	-3.4	2.3%	-1	-11%	-19	2	0
Cn1c(=O)[nH]c(=O)c2c1nc(Br)n2CC(O)c1ccccc1 (stereo not given)	0.2	2.4%	-9	10%	-3	-10	8
CC(C)C(NC(=O)c1ccc(C(C)(C)C)cc1)C(=O)NCC1(N(C)C)CCCCC1 (stereo not given)	-2.5	0.1%	1	19%	-6	3	11
COCCn1c(SCC(=O)Nc2ccc3c(c2)OCCO3)nnc1-c1ccncc1	1.3	-2.3%	-1	nt	-26	8	nt
COc1cc(C2C(C(=O)OC(C)C)=C(C)Nc3ncnn32)cc(OC)c1OC (stereo not given)	-4.0	6.8%	-3	16%	-3	-1	3
CCCC(=O)Nc1cc(S(=O)(=O)N(CC)CC)ccc1Cl	0.7	-1.2%	4	-29%	-15	-2	-4

# (continued)
Molecule	D2 agonist	PINK1 modulator	Six1-Eya2 inh	Sfp PPTase inh	D2 PAM	CtBP-E1A inh	TRPV1 PAM
O=C(/C=C/NNC(=O)c1ccccc1O)c1ccccc1	-7.3	2.9%	-11	21%	-11	-23	-21
CC(C)=C1C2CCC1C(C(=O)Nc1cc(C)cc(C)c1)C2C(=O)O (stereo not given)	3.8	1.0%	13	-18%	4	-24	1
C=CCNC(=O)c1ccc2c(=O)n(CCCN3CCCC3=O)c(=S)[nH]c2c1	-5.5	-0.8%	9	79µM*	-7	-2	-14
COC(=O)c1c(NC(=O)c2cccnc2Cl)sc(C(=O)N(C)C)c1C	-0.1	1.0%	-12	11%	-6	-1	11
COc1ccc(-c2nnc(SCC(=O)Nc3ccc(C(=O)O)cc3)n2-c2ccc(Cl)cc2)cc1	-3.9	1.0%	-3	24%	0	-26	5
COc1ccc(C2C(C#N)=C(N)Oc3cccc(O)c32)cc1 (stereo not given)	-2.6	3.2%	-7	-8%	0	5	4
Cc1ccc(NC(=S)Nc2cccc3cnccc23)cc1C	1.3	-1.6%	-4	40µM*	-5	-11	?
O=C(COC(=O)c1cccc(OC(F)F)c1)NCC1CCCO1 (stereo not given)	0.7	3.7%	2	nt	-6	-9	nt
Cc1sc2nc(CN3CCOCC3)[nH]c(=O)c2c1-c1ccccc1	0.5	0.5%	-1	4%	-3	4	3
CC(=O)N1CCC(Nc2ccc(C)cc2)CC1	-5.3	-0.7%	7	13%	-7	2	2
CCc1nnc(NC(=O)c2ccc(S(=O)(=O)N3CCc4ccccc4C3)cc2)s1	-0.8	15%	3	5%	-14	1	?
COc1ccc2c(c1)CCc1c(C(=O)N3CCCCCC3)noc1-2	0.1	-3.7%[38.3 µM]	-1	0%	-3	-15	1
Cc1ccc(CNC(=O)Nc2nnc([C@@H]3C[C@H](O)[C@@H](CO)O3)s2)cc1	-3.5	0.3%	-15	nt	0	4	nt
CCOC(=O)Cn1cc(/C=N/NC(=O)CC#N)c2ccccc21	-7.0	-1.8%	5	12%	-6	-11	nt
COc1ccc(NS(=O)(=O)c2ccc(OC)c(NC(=O)CNC(=O)c3ccc(OC)cc3)c2)cc1	-1.8	5.6%	0	nt	-1	-7	5
Cc1ccc(C(=O)N/N=C/c2ccc(N3CCOCC3)cc2)c(C)c1	2.4	1.9%	-1	7%	-5	1	-11
O=C(CSc1cccc[n+]1[O-])Nc1ccc(Cl)cc1F	6.5	0.1%	8	nt	-5	8	nt
O=C(Cn1cc([N+](=O)[O-])ccc1=O)N1CCc2ccccc2C1	0.5	3.3%	-2	nt	-4	nt	nt
Cc1cc(-c2ccco2)n(CC(=O)NCc2ccccc2)n1	-5.7	1.1%	3	3%	-7	-2	10
CCN(CC)C(=O)c1[nH]cnc1C(=O)N[C@@H](C)c1ccccc1	-0.5	0.6%	4	nt	-8	3	0
COc1ccc(N2CCN(C(=O)COC(=O)CCOc3ccccc3C)CC2)cc1	-19	-4.0%	-13	nt	5	-15	-18
Nc1cc(=O)[nH]c(SCCOc2ccccc2)n1	-1.6	-0.5%	-5	-11%	-3	0	2
O=C(Nc1cccc([N+](=O)[O-])c1)c1ccc2c(c1)OCCO2	4.6	0.0%	-1	1%	-6	6	-11
CCC1(C)Cc2c(c(=O)n(-c3ccccc3)c3ncnc(N)c23)CO1 (stereo not given)	-0.3	5.7%	6	23%	-3	3	8
O=C(Nc1ccccc1)Nc1ccc(O)c2ccccc12	?	-0.2%	-16	nt	7	nt	nt

# (list continues)
Molecule	D2 agonist	PINK1 modulator	Six1-Eya2 inh	Sfp PPTase inh	D2 PAM	CtBP-E1A inh	TRPV1 PAM
CCOc1cccc(-c2cc(C(=O)N/N=C/c3ccc(OC)c(CN4CCOCC4)c3)c3ccccc3n2)c1	-4.1	19%	-3	-5%	-1	-1	?
Cc1ccc(-n2ncc3c2CCCC3NC(=O)c2ccccc2N2CCOCC2)cc1C (stereo not given)	-11	0.4%	-4	-3%	-14	-1	2
CCOc1ccc(NC(=O)c2nn(C)cc2Br)cc1	-1.2	?	4	14%	-11	-2	-14
Cc1cc(NC(=O)c2cc3n(n2)C(C(F)(F)F)CC(c2ccco2)N3)no1 (stereo not given)	-3.3	9.9%	-5	12%	-5	0	17
Oc1ccc(C(c2nnnn2C2CCCC2)N2CCc3ccccc3C2)cc1 (stereo not given)	-3.8	0.4%	-6	50µM*	-27	-5	-5
CC(C)(C)NC(=O)C(c1cccs1)N(Cc1cccs1)C(=O)c1csnn1 (stereo not given)	4.0	0.7%	-5	6%	-6	3	3
CCC(C(=O)NC1CCCC1)n1c2ccccc2c2nc(=O)cc(C)n21 (stereo not given)	0.2	-0.8%	-8	nt	-8	3	nt
Cn1c(=O)[nH]c(=O)c2c1nc(NCCc1ccccc1)n2CC(O)COc1ccccc1 (stereo not given)	-2.1	7.5%	10	11%	-10	0	-7
CC(CN1C(C)CCCC1C)OC(=O)c1ccccc1Br (stereo not given)	-3.4	3.8%	-6	4%	-3	1	-8
COc1ccc([N+](=O)[O-])cc1NC(=O)C(C)N(C)Cc1ccc(Br)cc1 (stereo not given)	-2.7	2.0%	-12	3%	-23	7	2
COc1ccc(CC(=O)NC2CC(C)(C)NC(C)(C)C2)cc1OC	1.6	0.2%	3	13%	-6	2	6
CCOC(=O)c1c(C2CC2)csc1NC(=O)CSCc1c(C)noc1C	-2.9	1.1%	19	-4%	-19	1	2
COc1ccc2c(c1)[nH]c1c(=O)n(CC3CCCO3)cnc12 (stereo not given)	0.6	3.3%[38.3 µM]	-5	10%	19	-1	-16
Cc1cccc(N2CCN(C(=O)CSc3nnnn3C3CC3)CC2)c1C	0.9	-1.4%	-1	nt	-1	3	6
CCOc1cccc(/C=N/N=C/c2cccc(OCC)c2O)c1O	-4.1	2.5%	-3	-18%	-2	2	-9
